Mtb H37Rv: M. tuberculosis H37Rv growth inhibitors, H37Rv strain (AID 1626). M. tuberculosis H37Rv growth inhibition; higher % means a stronger effect. inhibition, % at 10 µM; hits with a dose series show IC50 in µM. 220,000 tested, 0.95% active;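 active means confirmed in a dose series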;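 further: bacteria incubated seven days before Alamar blue readout; 0% = bacteria only wells and 100% = bacteria with antibiotic wells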
YopH inh: YopH (Yersinia) phosphatase inhibition | AID 898 | inhibition, %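 (about 10 µM by stock and volumes)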 | fluorescence Ex485/Em525 | 140,000 tested, 0.16% active;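 active means inhibition of 50% or more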;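 further: controls were vehicle for no effect and minimum signal wells for full effect; inactives centre near -20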
Mtb betalactam: beta-lactam sensitization of Mtb H37Rv; M. tuberculosis H37Rv growth with meropenem, percent inhibition; hits of this screen are not shown here; inhibition, % at 25 µM; 330,000 tested, 0.27% active; AID 434955;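 active means about 74% or more and at least 40 points above the plate without the antibiotic, then above 30% in a dose series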;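 further: growth measured after seven days incubation then overnight dye step; 0% = bacteria only wells and 100% = bacteria with antibiotic; twin plates without the antibiotic show which effects depend on it; some results filed as inactive read as strong as hits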
RecA splice inh: Mtb RecA intein splicing inhibition; AID 2221; P9WHJ3; cell-free RecA intein splicing, fluorescence; inhibition, %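 (about 9 µM by stock and volumes)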; 290,000 tested, 0.75% active; in the data active means inhibition above about 30%;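 further: 0% = vehicle wells and 100% = reference inhibitor control wells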
Target sequence (P9WHJ3 whole entry, looked up, canonical isoform): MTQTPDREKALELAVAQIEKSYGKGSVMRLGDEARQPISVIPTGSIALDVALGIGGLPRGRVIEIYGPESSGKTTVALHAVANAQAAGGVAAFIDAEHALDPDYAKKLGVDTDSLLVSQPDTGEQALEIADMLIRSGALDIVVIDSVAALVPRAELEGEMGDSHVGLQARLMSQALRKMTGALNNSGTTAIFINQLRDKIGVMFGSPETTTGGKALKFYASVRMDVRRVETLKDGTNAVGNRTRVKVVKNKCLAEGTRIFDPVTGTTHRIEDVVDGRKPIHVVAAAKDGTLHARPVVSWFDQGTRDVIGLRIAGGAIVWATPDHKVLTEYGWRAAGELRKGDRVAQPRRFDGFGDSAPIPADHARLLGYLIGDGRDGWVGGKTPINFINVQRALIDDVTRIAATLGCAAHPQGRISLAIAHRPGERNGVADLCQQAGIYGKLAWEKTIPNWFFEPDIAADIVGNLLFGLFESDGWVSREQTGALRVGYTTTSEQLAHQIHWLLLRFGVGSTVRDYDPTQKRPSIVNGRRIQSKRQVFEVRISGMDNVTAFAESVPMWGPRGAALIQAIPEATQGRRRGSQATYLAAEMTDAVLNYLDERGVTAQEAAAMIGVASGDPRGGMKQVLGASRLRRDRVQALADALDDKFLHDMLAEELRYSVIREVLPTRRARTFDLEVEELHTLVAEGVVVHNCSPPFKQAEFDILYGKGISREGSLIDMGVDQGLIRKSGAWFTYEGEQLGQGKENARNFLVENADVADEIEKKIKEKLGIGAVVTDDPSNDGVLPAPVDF
Arbovirus inh: blocks arbovirus infection | 200,000 tested, 0.37% active | AID 1251 | inhibition, % at 10 µM | arbovirus infection cell-based antiviral screen;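 active means inhibition from about 30%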;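 further: bluetongue infection of BSR cells; cell survival read as ATP light after 72 h; 0% = infected wells without compound and 100% = uninfected wells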
Active calls of the source: *; · = not tested or not shown; & = joins results of further samples. An excerpt. The share of hits here may be higher or lower than overall.

SMILES	Mtb H37Rv	YopH inh	Mtb betalactam	RecA splice inh	Arbovirus inh
O=C(COc1ccc(Cl)cc1)NCc1nnc(SCC(=O)N2CCCC2)o1	7%	·	-6	1.0	3
CCOc1ccc(NC(=S)N(C)C)cc1	16%	·	-6	-1.5	·
Cc1ncc([N+](=O)[O-])n1CC(=O)Nc1ccc(F)cc1	·	·	4	-0.1	·
CCOC(=O)C1(Cc2cccc(F)c2)CCN(C(=O)c2cnc(C)cn2)CC1	3%	·	-13	3.8	-1
O=C(Cn1nc(C(F)(F)F)c2c1CCC2)Nc1ccccc1C(F)(F)F	-4%	-15	-11	-2.5	2
O=C(Nc1ccc(C(=O)O)cc1)/C(=C\c1ccco1)NC(=O)c1ccccc1Cl	·	·	4	-3.3	·
CCNC(=O)c1ccc(CSc2nc3ccccc3s2)cc1	·	·	12	2.0	·
CC(=O)c1c(COC(=O)c2ccc(F)cc2)nc2ccccc2[n+]1[O-]	·	·	-1	0.4	·
COC(=O)C1=C(C)N(C)C(=S)N(C)C1c1ccc(OC)cc1 (configuration not stated)	3%	·	1	1.6	-15
COC(=O)c1ccc(NC(=O)CSc2nc3ncccc3[nH]2)cc1	3%	·	69	3.1	·
CCN1C(=O)N[C@@H](c2ccccc2)C(C(=O)OC)=C1C	-14%	·	-3	0.4	·
COc1ccccc1-c1cc(C(=O)NCCN2CCOCC2)no1	1%	-7	-13	5.6	7
CCC(=O)NCCCCCCCCCNC(=O)CC	5%	-26	3	-3.4	6
CN(C(=O)c1cccnc1)c1nnc(-c2ccccn2)s1	-1%	-33	0	-0.8	2
COCC(=O)N(C)c1nnc(-c2ccccn2)s1	1%	-22	-4	1.1	5
CCOc1cc(C(=O)NC)cc(Br)c1OC	-5%	·	-5	1.3	3
Cn1cc(C(=O)N/N=C/C=C/c2ccccc2)ccc1=O	2%	-12	-1	-0.5	1
CC1CCc2cc(F)ccc2N1S(=O)(=O)c1ccc(F)cc1 (configuration not stated)	·	·	0	5.5	·
CCN1CCN(c2ccc(S(=O)(=O)N3CCCC3)cn2)CC1	4%	·	-2	-1.5	10
Cc1ccc(-n2c(-c3ccc(Cl)cc3Cl)n[nH]c2=S)cc1	·	·	0	3.8	·
NS(=O)(=O)c1ccc(NC(=O)c2cc(-c3cccs3)nc3ccccc23)cc1	-5%	-6	-5	0.3	-15
O=C(Nc1nnc(-c2ccc(Cl)cc2)o1)c1ccc(N2C(=O)CCC2=O)cc1	8%	-29	2	-4.0	1
COc1ccc(CCNCC(C)c2ccccc2)cc1 (configuration not stated)	·	·	1	1.3	·
CN(CC(=O)Nc1ccc(F)cc1Cl)Cc1cccs1	·	·	-2	3.5	·
Cc1oc(C(C)(C)C)cc1C(=O)Nc1cccc(C(=O)O)c1	0%	-30	4	0.4	4
CCCOc1ccc(N2C(=O)CC(N3CC=C(c4ccccc4)CC3)C2=O)cc1 (configuration not stated)	82%	·	-5	0.6	3
Cn1c(N2CCOCC2)c(/C=N/O)c2ccccc21	6%	·	-7	-3.1	8
Cc1cccc(C)c1NC(=O)NC1(C(=O)N2CCCCC2)CCCCC1	·	·	6	6.3	·
COc1ccc(N=C2S/C(=C\c3ccc(C)o3)C(=O)N2CC(C)C)cc1	11%	-6	-7	-0.3	-2
O=C(CSc1nc2[nH]ncc2c(=O)[nH]1)Nc1nccs1	2%	·	8	0.9	3

The list goes on, overlapping the part above by 3 compounds.
SMILES	Mtb H37Rv	YopH inh	Mtb betalactam	RecA splice inh	Arbovirus inh
Cc1cccc(C)c1NC(=O)NC1(C(=O)N2CCCCC2)CCCCC1	·	·	6	6.3	·
COc1ccc(N=C2S/C(=C\c3ccc(C)o3)C(=O)N2CC(C)C)cc1	11%	-6	-7	-0.3	-2
O=C(CSc1nc2[nH]ncc2c(=O)[nH]1)Nc1nccs1	2%	·	8	0.9	3
C=CCOC(=O)C1=C(C)NC(=O)NC1c1ccc(O)cc1 (configuration not stated)	·	·	-6	0.3	·
O=C(NCCc1ccccn1)c1cccc(S(=O)(=O)N2CCCCCC2)c1	-7%	-10	-12	-1.3	1
N#CC1(NC(=O)COC(=O)c2ncc(Cl)c(Cl)c2Cl)CCCCC1	·	·	-4	1.8	·
C=CCNC(=S)Nc1nc2c(cc1C(=O)OCC)CCCC2	-1%	-18	0	-1.5	16
COc1ccc(S(=O)(=O)N(CC(=O)NCC2CCCO2)c2ccc(Cl)cc2)cc1 (configuration not stated)	·	·	-13	0.5	·
COc1ccc(C(=O)Nc2ccc3[nH]ncc3c2)cc1	·	·	-4	3.4	·
CC(=O)N1CCN(c2ccc(NC(=S)NC(=O)c3ccccc3)cc2)CC1	8%	-20	3	2.3	-11
O=C(c1ccccc1F)N1CCC(N2CCCCCC2)CC1	-22%	-16	-5	-3.4	9
Cc1nc2ccccc2cc1C(=O)N/N=C/c1cccc([N+](=O)[O-])c1	-2%	-28	-5	1.4	5
O=C(NCCN1CCN(c2ccccc2)CC1)Nc1ccccc1Cl	·	·	3	-0.2	·

Part of the list above, field by field.
> O=C(c1ccccc1F)N1CCC(N2CCCCCC2)CC1
  Mtb H37Rv: -22%
  YopH inh: -16
  Mtb betalactam: -5
  RecA splice inh: -3.4
  Arbovirus inh: 9

> Cc1nc2ccccc2cc1C(=O)N/N=C/c1cccc([N+](=O)[O-])c1
  Mtb H37Rv: -2%
  YopH inh: -28
  Mtb betalactam: -5
  RecA splice inh: 1.4
  Arbovirus inh: 5

Complete entries from above. Screens in order: Mtb H37Rv | YopH inh | Mtb betalactam | RecA splice inh | Arbovirus inh
Profile of O=C(c1ccccc1F)N1CCC(N2CCCCCC2)CC1 → -22% | -16 | -5 | -3.4 | 9
Profile of COc1ccc(C(=O)Nc2ccc3[nH]ncc3c2)cc1 → · | · | -4 | 3.4 | ·
Profile of CC(=O)N1CCN(c2ccc(NC(=S)NC(=O)c3ccccc3)cc2)CC1 → 8% | -20 | 3 | 2.3 | -11
Profile of COc1ccc(S(=O)(=O)N(CC(=O)NCC2CCCO2)c2ccc(Cl)cc2)cc1 (configuration not stated) → · | · | -13 | 0.5 | ·

Other records:
SMILES	Mtb H37Rv	YopH inh	Mtb betalactam	RecA splice inh	Arbovirus inh
O=C(Nc1ccc2c(c1)OCO2)c1ccc2nc[nH]c2c1	-9%	-12	6	3.7	-19
CSc1nc2cc(Cl)ccc2s1	-2%	-9	-5	0.7	-2
COc1cc(S(=O)(=O)NCCOC23CC4CC(CC(C4)C2)C3)c(OC)cc1Cl	-2%	-49	3	0.3	3
O=C(Oc1ccc(Cl)cc1)c1ccc2nccnc2c1	45%	-23	69	5.4	5
O=C(CN1CCN(Cc2ccccc2)CC1)Nc1ccccc1-c1ccccc1	2%	·	7	0.6	-17
CCNC(=S)N1CCc2cc(OC)c(OC)cc2C1COc1ccc(F)cc1 (configuration not stated)	0%	·	-3	3.1	2
COc1cccc(/C=N/NC(=O)c2cc3cc([N+](=O)[O-])ccc3s2)c1O	1%	-41	14	0.3	-33
O=C(O)c1ccc(Cl)c(S(=O)(=O)NCC2CCCO2)c1 (configuration not stated)	-2%	4	2	-2.5	8
CC(/C=N/n1c(-c2ccc(Cl)cc2)n[nH]c1=S)=C\c1ccco1	9%	-25	9	1.4	-1
COc1cc(C)c(Cl)c(C)c1S(=O)(=O)NC1CC(C)(C)NC(C)(C)C1	0%	·	1	-0.8	-7
CC(=O)NC(C)(CC(=O)c1ccccc1)c1ccccc1 (configuration not stated)	·	·	-9	0.8	·
CC(=O)C1=C(O)C(=O)N(c2ccc(Br)cn2)C1c1ccc(F)cc1 (configuration not stated)	-3%	·	3	0.5	1
CCOC(=O)N1CCN(CCC(=O)Nc2cccc(Br)c2)CC1	-12%&-1%	8&17	2&-3	-1.0&-2.0	-2&-3
CC1CC(C)(C)NC(=S)N1CCCC(=O)Nc1ccc(Br)cc1 (configuration not stated)	8%	·	-4	·	-1
CCOc1ccc(/C=N/NC(=O)Nc2ccccc2)cc1	-2%	·	-3	-1.2	9
Cc1cccc(C)c1N=Nc1c(C)cc(O)cc1C	·	·	54	23	·
O=C(/C=N/O)Nc1ccc2sc3ccccc3c2c1	50%	·	70	5.0	·
O=[N+]([O-])c1cc(S(=O)(=O)Nc2cccc(Cl)c2)ccc1N=Nc1c(O)[nH]c2ccccc12	16%	·	16	-0.6	-21
CCOC(=O)c1ccc(NC(=O)COC)cc1	79%	1	92	0.4	-1
Cc1cccc(NC(=S)NCc2ccco2)c1C	2%	-24	3	1.9	14
O=C(N=c1ccn(-c2nc3ccccc3nc2NS(=O)(=O)c2ccc(Cl)cc2)cc1)c1ccccc1Cl	5%	·	-7	-6.9	·
Cc1nc2c3cc(Cl)ccc3n(CCN3CCCCC3)c2s1	10%	0	-1	7.4	-11
COc1ccc(CN(C(=O)c2ccccc2Br)C2CCS(=O)(=O)C2)cc1 (configuration not stated)	·	·	-1	-4.0	·
O=C(NCc1ccccc1)C1CCCN(c2ncnc3c2nc2n3CCCCC2)C1 (configuration not stated)	·	·	-2	-0.3	·
COc1ccc(C(=O)NCC(=O)OCC(=O)N2CCN(S(=O)(=O)c3ccccc3)CC2)cc1	3%	-26	6	-0.4	-2
Cc1ccc(OC(=O)c2cccc(S(=O)(=O)N3CCN(C)CC3)c2)c(Br)c1	·	·	-12	7.9	·
COc1cc(NC(=O)CN2CCN(c3ccccc3F)CC2)cc(OC)c1	6%	-17	-5	·	21
O=c1c2c3c(sc2n(CCN2CCOCC2)c(=O)n1Cc1ccco1)CCCCC3	6%	9	-3	2.7	-4
CCOC(=O)N1CCN(Cc2c(F)cccc2F)CC1	2%	-10	-6	-3.4	9
CC1(N(O)C=C2C=CC(=O)C=C2)CCCCC1=O (configuration not stated)	-6%	·	5	-4.0	·

In the list so far, 5 have an aryl thioether with sulfur outside any ring:
SMILES	Mtb H37Rv	YopH inh	Mtb betalactam	RecA splice inh	Arbovirus inh
O=C(COc1ccc(Cl)cc1)NCc1nnc(SCC(=O)N2CCCC2)o1	7%	·	-6	1.0	3
CCNC(=O)c1ccc(CSc2nc3ccccc3s2)cc1	·	·	12	2.0	·
COC(=O)c1ccc(NC(=O)CSc2nc3ncccc3[nH]2)cc1	3%	·	69	3.1	·
O=C(CSc1nc2[nH]ncc2c(=O)[nH]1)Nc1nccs1	2%	·	8	0.9	3
CSc1nc2cc(Cl)ccc2s1	-2%	-9	-5	0.7	-2

Next compounds follow:
SMILES	Mtb H37Rv	YopH inh	Mtb betalactam	RecA splice inh	Arbovirus inh
Cc1cccc(NC(=O)CSCC(=O)N2CCN(Cc3ccc4c(c3)OCO4)CC2)c1	·	·	-6	-3.9	·
C/C(=N/NC(=O)c1ccccc1)c1ccc(NC(=O)C(F)(F)F)cc1	-3%	·	4	0.7	-1
Cc1cccc(-c2nnc(SC(C)C(=O)N3CCOCC3)o2)c1 (configuration not stated)	·	·	1	1.1	·
Cc1ccc(C(C)C)c(OCc2nnc3n2CCCCC3)c1	13%	-51	-3	1.4	7
COc1ccc(C(=O)NC(C)c2ccc(-n3ccnc3)cc2)c(OC)c1OC (configuration not stated)	·	·	0	-1.1	·
CCCCCCCCc1nnc(NC(=O)c2ccco2)s1	-4%	0	6	3.9	10
CC(SCC(=O)NC(C)C1CC2CCC1C2)C(=O)O (configuration not stated)	-3%	-17	0	-0.8	1
Cc1ccc(C(C)(C)NC(=O)C2CCC(=O)N(CCCN3CCOCC3)C2)cc1 (configuration not stated)	·	·	4	0.4	·
